# Screens (PubChem BioAssay)
# LANA-nucl inh – LANA-nucleosome interaction inhibition; FITC-LANA1-23 / chicken nucleosome fluorescence polarization; active compounds read low; z-score (concentration not given with the values); 0.3% of 51,000 active;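 active = both repeat wells score below -2 in polarization z-score versus plate sample wells, excluding overly bright wells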;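 note: 100 nL library stock added to about 30 µL; numbers are from one replicate; some results filed as inactive read as strong as hits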
#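 Assay system: purified chicken nucleosomes with FITC-labelled LANA N-terminal peptide (1-23) / Probe or stimulus: 50 nM FITC-LANA1-23 probe / Compound dosing: pin-transferred compound, 100 nL / Times: compound with peptide–nucleosome mix 10–45 min at room temperature / Technique: fluorescence polarization, 480 nm excitation, 535 nm parallel and perpendicular emission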
# Ab BasE inh – inhibitors of Acinetobacter baumannii siderophore enzyme BasE; purified BasE, fluorescence polarization binding displacement; inhibition, % (concentration not given with the values); 0.1% of 84,000 active;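 active = both replicates above 25% with normal brightness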;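 note: 0% = negative plate control signal and 100% = positive plate control signal; stock transfer was 100 nL into about 30 µL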
# * hit, by the source's call; · = not tested or not shown.
SMILES,LANA-nucl inh,Ab BasE inh
Cc1nn(-c2ccccc2)c2nc(-c3ccccc3)cc(C(=O)NC3=NCCS3)c12,·,-0.7
C/C(=C/C(=O)C(F)(F)F)N1CCN(c2ccccc2F)CC1,·,-0.2
CC(NC(=O)CSc1ccc(S(=O)(=O)N(C)C)cn1)c1ccc2c(c1)OCCO2 (stereo not given),·,-6.0
O=C(NCCCN1CCCC1=O)c1cc(-c2ccccc2)nc2ccccc12,·,-0.5
CN(C)c1ccc(/C=C/C=N/c2sccc2C#N)cc1,0.21,·
COc1cc(O)oc1C=Nc1ccccc1,2.4,·
COC(=O)C1=C(C)N(Cc2ccc(OC)cc2)C(=O)/C1=C\c1ccco1,·,-4.6
CCC(=O)Nc1n[nH]c(-c2ccncc2)n1,-0.47,0.6
Cc1cc(Cl)cc(Cl)c1CN(C)C(=O)c1cnc(Oc2ccc(Cl)cc2)cc1C(F)(F)F,0.3,·
CCC(C)c1ccc(S(=O)(=O)NC(C)(C)CC)cc1 (stereo not given),·,0.0
O=C(Nc1cccc2c1CCCC2)N1c2ccccc2Sc2ccccc21,·,1.2
CC1CN(S(=O)(=O)c2ccc(NC(=O)CCCCCN3C(=O)c4ccccc4C3=O)cc2)CC(C)O1 (stereo not given),0.5,-1.4
Cc1cccn2c(=O)c3cc(C#N)c(=NC(=O)c4ccccc4)n(Cc4ccco4)c3nc12,·,1.1
Cn1c(SCCC(=O)O)nc2ccccc21,-0.52,-0.8
Cc1cc(N2CCN(c3ccccc3)CC2)n2c(nc3ccccc32)c1C#N,-0.69,0.0
CCC(=O)OC1C(C)OC(OC2C(C)OC(O[C@H]3[C@@H](CC=O)C[C@@H](C)[C@@H](O)/C=C/C=C/C[C@@H](C)OC(=O)C[C@@H](OC(=O)CC)[C@@H]3OC)C(O)C2N(C)C)CC1(C)O (stereo not given in full),-0.037,-1.5
N/C(=N\O)c1cnn2c(C(F)(F)F)cc(C(F)(F)F)nc12,-0.26,0.8
CCn1c(CN(C)Cc2cccc(F)c2)nc2cc(S(=O)(=O)N(C)C)ccc21,·,1.1
CC(C)(C)NC(=S)NC1CC1,·,2.1
Cc1ccc(C)c(N2N=C(C(=O)OCC(=O)NCc3ccco3)CCC2=O)c1,·,0.7
OC(CN1CCC(Cc2ccccc2)CC1)c1ccccc1 (stereo not given),·,-1.6
O=C(/C=C/c1ccccc1)NC(O)C(=O)c1ccccc1 (stereo not given),0.99,1.8
Nn1c(-c2ccccc2)cn2c(cc3sccc32)c1=S,0.8,-2.7
Cc1ccc(C)c2[nH]c(=O)c(CCNC(=O)C3CCCC3)cc12,-1.2,1.0
CN1CCS/C1=C\C=C1/SC(=S)N(c2ccccc2)C1=O,-0.19,-5.0
Cc1nn(CCC(=O)NCc2ccco2)c(C)c1Cl,1.8,-3.6
Cc1nn2cnnc2c(C)c1CCC(=O)NC1CCCCC1,-0.13,-1.2
O=C(O)c1cnn(-c2ccccc2)c1-n1cccc1CNCc1ccc(Cl)cc1,·,1.5
CCOC(=O)c1cn[nH]c1NC(=S)NCc1ccccc1,-0.16,-1.3
COC(=O)C1=C(C)N(C(C)C)C(=O)/C1=C\c1ccc(C(=O)O)cc1,·,2.7
COc1ccc(N(CN2C(=O)c3ccccc3C2=O)C(=O)C(C)C)cc1,·,-0.4
FC(F)(F)c1cccc(-c2noc(-c3ccccn3)n2)c1,-0.3,0.3
Cc1cc(C)cc(OCc2ccc(C(=O)O)o2)c1,0.3,1.3
CCC1(C)NC(=O)N(NC(=O)CCc2c[nH]c3ccccc23)C1=O (stereo not given),·,-1.0
COC(=O)Cn1c(CCS(=O)(=O)c2ccc(Cl)cc2)nc2ccccc21,·,0.8
Cc1nnc(N2C(=N)S/C(=C\c3ccccc3Cl)C2=O)s1,·,0.6
O=C(CSc1nc2ccccc2nc1N1CCCC1)Nc1ccc(F)cc1,0.39,-2.4
Cc1nn(-c2ccccc2)c2sc(C(=O)OCC#N)cc12,·,1.4
NC1=NC(c2cccc(Oc3ccccc3)c2)n2c(nc3ccccc32)N1 (stereo not given),·,-0.5
CN(C)c1nc(N)ncc1-c1ccccc1,0.73,·
COc1ccc(Br)cc1CNC(=O)C1CCN(C(=O)c2sccc2-n2cccc2)CC1,0.11,-0.1
Cc1ccc(/C=C/C2=Cc3c(sc(N)c3C#N)C(C)(C)C2)o1,·,16
CCOC(=O)c1nn(-c2ccc(F)cc2)c(=O)c2c(NC(=O)c3ccc(Br)o3)scc12,-1.4,0.6
CCOC(=O)c1sc(C)nc1C(F)(F)F,-0.71,·
CCCSc1nc2c3ccccc3ncn2n1,·,0.6
N#CC1=C(S)N(c2ccccc2)C2(CCCCC2)NC1=O,-0.66,-0.3
COc1ccc2[nH]c(=O)c(CN(CCCN3CCOCC3)C(=O)Nc3ccccc3)cc2c1,0.99,1.2
S=c1[nH]ncn1NCc1cccc(Br)c1,0.41,2.9
CCN1C(=O)c2ccccc2S(=O)c2ccc(C(=O)NCCc3ccc(C)cc3)cc21 (stereo not given),-0.097,-1.9
C/C(N)=C(/C#N)C(=O)CSc1nc(N)cc(=O)[nH]1,·,0.6
O=c1[nH]c(CSc2nnc(CCCOc3ccc(Cl)cc3Cl)o2)nc2ccccc12,0.56,1.2
Cc1cc2c(cc1S(=O)(=O)N(CC(C)C)CC(C)C)OCC(=O)N2,0.47,4.5
O=C(Cn1cnc2ccccc2c1=O)OCC(=O)N1CCOCC1,·,-0.3
Cc1cn(C2CCC(CO)O2)c(=O)[nH]c1=O (stereo not given),·,-1.4
CCCN(C(=O)CC)c1nc(-c2ccccc2)cs1,-0.09,0.1
CC1c2ccsc2CCN1C(=O)c1ccc(C(F)(F)F)cc1 (stereo not given),·,-0.7
O=C1CCN(Cc2ccccc2)C(=O)N1c1ccc2c(c1)CCO2,-0.89,1.4
CCOC(=O)CCc1c(C)nc(SCC(=O)O)c(C#N)c1C,0.73,1.6
Nn1c(SCC2CCCCO2)nnc1-c1ccncc1 (stereo not given),·,1.3
CCCCNC(=O)c1ccccc1NC(=O)C1=C(C)OCCS1,0.39,3.7

# 4 entries from above in a different format:
> CC1c2ccsc2CCN1C(=O)c1ccc(C(F)(F)F)cc1 (stereo not given)
  LANA-nucl inh: ·
  Ab BasE inh: -0.7
> O=C1CCN(Cc2ccccc2)C(=O)N1c1ccc2c(c1)CCO2
  LANA-nucl inh: -0.89
  Ab BasE inh: 1.4
> CCOC(=O)CCc1c(C)nc(SCC(=O)O)c(C#N)c1C
  LANA-nucl inh: 0.73
  Ab BasE inh: 1.6
> Nn1c(SCC2CCCCO2)nnc1-c1ccncc1 (stereo not given)
  LANA-nucl inh: ·
  Ab BasE inh: 1.3

# (list continues)
SMILES,LANA-nucl inh,Ab BasE inh
COc1ccc(N(CC(=O)Nc2cc(C)on2)S(=O)(=O)/C=C/c2ccccc2)cc1,·,2.7
COc1ccc(CCNC(=O)c2cnn(-c3ccc(C)c(C)c3)c2NC(=O)c2ccco2)cc1OC,-1.2,2.2
CCNC(=S)N1CCN(C)CC1,-0.36,0.0
COc1cc2c(cc1OC)CN(C1CCCCN(C(=O)c3ccc(F)cc3)C1=O)CC2 (stereo not given),·,-0.5
O=C(c1ccco1)N1CCN(C(=S)Nc2ccc(S(=O)(=O)Nc3ncccn3)cc2)CC1,-0.59,0.7
O=C(O)c1nccnc1C(=O)N1CCN(C(c2ccccc2)c2ccccc2)CC1,·,-2.4
O=C(NCCN1CCNC1=O)Nc1cccc2ccccc12,2.2,0.1
c1ccc(SCc2nc3ccccc3[nH]2)cc1,2.4,·
O=C(NC1CCCc2ccccc21)c1cccnc1 (stereo not given),·,0.2
O=C(Cn1cnc2ccccc2c1=O)c1cccs1,-1.2,-3.1
Cc1cc(NC(=O)CC(C)C)no1,-0.48,-1.4
CCCNC(=O)NC1CC(C)(C)NC(C)(C)C1,-0.58,2.5
CCCNC(=O)c1ccc(C)c(NC(=O)C2=CSCCO2)c1,-1.5,1.0
O=S1(=O)CCN(Cc2cc(F)cc3c2OCOC3)CC1,-0.55,·
COC(=O)CSC(=S)N1CCC(C)CC1,·,2.2

# 5 compounds already listed, arranged by molar mass, low to high:
SMILES,LANA-nucl inh,Ab BasE inh
CCNC(=S)N1CCN(C)CC1,-0.36,0.0
COC(=O)CSC(=S)N1CCC(C)CC1,·,2.2
O=C(Cn1cnc2ccccc2c1=O)c1cccs1,-1.2,-3.1
CCCNC(=O)c1ccc(C)c(NC(=O)C2=CSCCO2)c1,-1.5,1.0
COc1cc2c(cc1OC)CN(C1CCCCN(C(=O)c3ccc(F)cc3)C1=O)CC2 (stereo not given),·,-0.5

# Carrying on.
SMILES,LANA-nucl inh,Ab BasE inh
O=C(/C=C/c1ccco1)OCCN1CCOCC1,-1.2,0.7
COc1ccc(S(=O)(=O)C(C#N)c2nc3ccccc3nc2N2CCCC2)cc1 (stereo not given),-1.5,·
O=C(NC1CCCC1)c1ccc2c(c1)OCO2,1.3,-1.2
S=C1NCc2ccsc2S1,-0.19,0.7
O=C(CCCN1C(=O)/C(=C\c2ccco2)SC1=S)N1CCCCC1,0.11,1.0
COc1ccc(CCNC(=O)c2ccc(N3CCCC3=O)cc2)cc1OC,1,-1.1
Cc1cc(C)c2c(n1)SCC(=O)N2CC(=O)NC(C)C,-0.5,1.9
OCCSCc1cc(Cl)ccc1OC(F)F,·,0.2
COC(=O)c1ccc(CN2CCN(c3ccccc3)CC2)o1,·,-0.9
O=C(Nc1ccc(N2CCCCC2)cc1)c1c(Cl)nc2sccn12,·,0.8
O=C(O)c1ccccc1,-0.47,·
COC(=O)C(C)Sc1n[nH]c(-c2ccc(Br)cc2)n1 (stereo not given),·,2.8
Cc1ccc(-n2c(C)cc(-c3csc(NC(=O)C(C)C)n3)c2C)cc1,·,-4.0
CN(c1ccccc1)S(=O)(=O)c1ccc(C(=O)NC2=NCCS2)cc1,·,0.0
Cc1ccc(Cc2nnc(C(=O)NCC3CCCO3)o2)cc1 (stereo not given),-0.32,3.0
CC1CC(C)CN(C(=O)Nc2ccc(F)cc2)C1 (stereo not given),-0.31,-0.3
CCn1c(C(=O)N2CCC(C(=O)NCc3ccccc3OC)CC2)cc2sccc21,2.9,-1.0
CCN(CC)c1ccc(C(=O)OCc2nc3ccccc3c(=O)[nH]2)cc1,·,1.8
O=C(Nc1ccc(S(=O)(=O)Nc2ccccn2)cc1)c1cc2ccccc2o1,-0.69,-0.2
COC(=O)c1c(C(=O)OC)c2n(c1C)CSC2,·,-1.0
Cc1nnc(SC(C)C(N)=O)n1Cc1ccccc1 (stereo not given),·,-1.6
S=C(NCCc1ccccc1)NNC1=NCCCCC1,·,1.2
CC(NC(=O)CSc1nnc2ccccn12)c1ccc2c(c1)OCCO2 (stereo not given),·,-1.6
Cc1cc(-n2nc3ccccc3n2)c2oc(SCc3nnc(-c4ccccc4)o3)nc2c1,-0.92,1.2
Cc1ccc(S(=O)(=O)NC(=O)N2CCCCCC2)cc1,·,2.9
O=C(CCNC(=O)c1ccco1)Nc1cc(Cl)ccc1N1CCCCCC1,·,0.1
Cc1ccc(CSc2nccc(C)n2)cc1,-0.026,-1.7
CSc1nc(N/C=C(\C#N)S(=O)(=O)c2ccccc2Cl)nc(C2CC2)n1,·,-2.4
O=c1c2cc3c(cc2nc2sc(NCc4ccccc4)nn12)OCO3,1.1,3.7
Cc1ccc(Cn2c(N)c(C#N)c3nc(C#N)c(C#N)nc32)cc1,·,0.8
O=C(CSc1ccccc1)Nc1nc2ccccc2[nH]1,·,1.9
N=C1/C(=C/c2ccco2)C(=O)N=C2SC=C(c3ccccc3)N12,1.2,-0.7
O=C1NC(=S)N/C1=C\c1ccccc1,·,-1.0

# 4 compounds already listed, ordered by the number in LANA-nucl inh, largest number first:
SMILES	LANA-nucl inh
O=c1c2cc3c(cc2nc2sc(NCc4ccccc4)nn12)OCO3	1.1
Cc1ccc(CSc2nccc(C)n2)cc1	-0.026
O=C(Nc1ccc(S(=O)(=O)Nc2ccccn2)cc1)c1cc2ccccc2o1	-0.69
Cc1cc(-n2nc3ccccc3n2)c2oc(SCc3nnc(-c4ccccc4)o3)nc2c1	-0.92

# Some of the compounds tested, so the mix of outcomes need not match the whole.
